High-throughput results as filed in PubChem.
VACV Venus inh: inhibitors of vaccinia virus (Venus reporter). Vaccinia virus Venus reporter expression, fluorescence. Potency, µM (doses to about 36.5 µM), for inactives: at the highest dose activity change, negative = inhibition, most hits filed as inhibitors. 330,000 tested, 0.46% active. AID 720580; active means well fitted inhibition curve with a large enough effect; inconclusive means small, poorly fitted or top-dose-only effect; inactive means no such curve, though single readings can be large or run the other way; tested in A549 cells; further: nearly all actives have a fitted effect of over 30% in size; inactives centre near -10
Vaccinia mCherry: vaccinia inhibition (mCherry reporter); AID 720579; Vaccinia virus mCherry reporter infection, fluorescence; about a quarter of the inactives have no number; 310,000 tested, 0.63% active; Potency, µM (top dose mostly 36.5 µM), for the others: at the top dose activity change, negative = inhibition, most hits filed as inhibitors; active = well fitted inhibition curve with a large enough effect; inconclusive = small, poorly fitted or top-dose-only effect; inactive = no such curve, though single readings can be large or run the other way; tested in A549 cells; further: nearly all actives have a fitted effect of over 35% in size; inactives centre near -10
* hit, by the source's call; i = inactive; ? = inconclusive; / = not tested or not shown; & = joins results of further samples; [ ] = dose if it differs, or a comment. On the % scale 0 is the no-effect control and ±100 the full control effect; potency means the concentration at half of the fitted maximal effect.

SMILES	VACV Venus inh	Vaccinia mCherry
CC[N+]1(CC(=O)c2ccc(I)cc2)CCCCC1	-8%	i
Nc1nc2c(ncn2[C@@H]2O[C@H](CNCc3ccc(Oc4cc(-n5cccn5)ncn4)cc3)[C@@H](O)[C@H]2O)c(=O)[nH]1	0%	i
CC(=O)Nc1ccc(C(=O)N2CCN(C(=O)c3ccco3)CC2)cc1	-1%	4%
COc1cc2nc(C3CCC3)n(NC(=O)C3CCC(OC)CC3)c(=O)c2cc1OC (stereo not drawn)	0%	-7%
CCOC(=O)C1CCN(CC(=O)c2c(C)[nH]c3ccccc23)CC1	-6%	/
CC(=O)c1ccccc1C(=O)N1CCCC(CNC(=O)c2ccc(F)cc2)C1 (stereo not drawn)	-4%	i
Cc1cc(S(=O)(=O)N2CCOCC2)ccc1OCC(=O)NCC1CCCO1 (stereo not drawn)	-10%	-24%
CCCOc1ccc(N2C(=O)CC(N3CCC(O)(c4cccc(C(F)(F)F)c4)CC3)C2=O)cc1 (stereo not drawn)	-20%	/
COc1ccc(-c2ccc3[nH]c4c(c3c2)CCN2C(=O)[C@@H]([C@H](C)O)[C@@H](N(C)C(=O)Nc3ccccc3)C[C@@H]42)cc1	-27%	-19%
Cc1ccc(/C=N/NC(=O)C(=O)N/N=C/c2ccc(C)o2)o1	-13%	-11%
O=C(COC(=O)C12CC3CC(CC(C3)C1)C2)NCc1ccco1	-17%	/
CN1CCC(N(C)C(=O)c2ccccc2Nc2ccc(SC(F)F)cc2)CC1	-10%	i
Clc1ccc(CNC2CN3CCC2CC3)cc1 (stereo not drawn)	-1%	-20%
CN1CCN(C2=Nc3cc(F)ccc3Cc3ccccc32)CC1	-11%	-28%
COc1ccc(-c2cc(-c3cccs3)c(C#N)c(SCC(=O)NCc3ccccc3OC)n2)cc1	8%	-5%
Cc1cccc(NC(=O)CN2CCN(C(=O)CNC(=O)c3ccc(-c4ccccc4)cc3)CC2)c1C	?	-11%
CCn1c(C)c(C(C)=O)c(N2CCN(c3ccc(F)cc3)CC2)nc1=S	-15%	?
CC(C)CNC(=S)N1CCC(C(=O)c2ccc(Cl)cc2)CC1	-27%	?
CCOC(=O)C(=NC(C)CC)NNc1ccc(Br)cc1 (stereo not drawn)	-9%	-9%
CC(C)(C)NC(=O)c1cc(Cl)ccc1[N+](=O)[O-]	-9%	-2%
C=CCn1c(O)c(N=NC(=S)Nc2ccc(OC)cc2)c2ccccc21	-30%	-29%
O=S(=O)(Nc1cccc(-c2ccc(N3CCCCCC3)nn2)c1)c1ccc(C(F)(F)F)cc1	-14%	i
O=C(O)CCN(Cc1ccccc1)S(=O)(=O)c1ccccc1Cl	-4%	i
COc1ccc(S(=O)(=O)N2CCCCC2)cc1NC(=O)c1[nH]c(C)c(C(C)=O)c1C	-14%	-3%

Reprinted from above, 2 compounds:
SMILES	VACV Venus inh	Vaccinia mCherry
O=C(O)CCN(Cc1ccccc1)S(=O)(=O)c1ccccc1Cl	-4%	i
COc1ccc(S(=O)(=O)N2CCCCC2)cc1NC(=O)c1[nH]c(C)c(C(C)=O)c1C	-14%	-3%

Remaining list, next part.
SMILES	VACV Venus inh	Vaccinia mCherry
C=CCn1c(=O)c2c(C)c(C)sc2n2c(Nc3ccccc3)nnc12	-9%	i
CC(=O)NCCNc1nc2cc(-c3ccccc3)sc2c(=O)n1C	3%	0%
Cc1cccc(CSc2nnc([C@@H]3CCCN3C(=O)OC(C)(C)C)o2)c1	-4%	-3%
Cc1ccc2nc(SCC3CCCCO3)[nH]c2c1 (stereo not drawn)	-15%	-10%
CCc1nn(CC(=O)NC(C)CC)c(=O)c2cc3occc3n12 (stereo not drawn)	7%	-11%
Oc1c(Br)cc(Br)cc1C=NCc1ccccc1	-7%	-15%
COC(=O)[C@H](NC(=O)c1cc([C@@H](NC(=O)OC(C)(C)C)C(C)C)sc1N)C(C)C	-21%	?
CC(=O)N1CCc2c(sc3c2c(=O)n(Cc2ccccc2)c(=O)n3CC(=O)NCC2CCCO2)C1 (stereo not drawn)	-9%	i
COc1ccc(C2(O)CN(c3ccccc3)C3=[N+]2CCS3)cc1OC (stereo not drawn)	-3%	-8%
Cc1ccc(Cn2c(CCNC(=O)c3cccc(C)c3)nc3ccccc32)cc1	-12%[7.34 µM]	-15%[7.34 µM]
CCN1CCN(CNC(=O)c2cnccn2)CC1	-5%	/
Cc1ccsc1/C=C1/C(=O)NN(c2ccccc2)C1=O	12%	i
Cn1ncc2c(=S)nc(Cl)[nH]c21	-10%	-22%
CCOC(=O)C(Cc1ccc(O)cc1)Nc1nc2ccccc2o1 (stereo not drawn)	-14%	i
Cc1noc(C)c1COC(=O)Cc1ccc(Cl)cc1	2%	-10%
Cc1cccc(NC(=O)c2nc[nH]c2C(=O)N(C)Cc2ccccc2)c1	-22%	-20%
COc1ccc(NC(=S)N2CCN(S(=O)(=O)c3ccc(C)cc3)CC2)cc1	-11%	-10%
O=c1[nH]ncc(NCCc2ccccc2)c1Cl	2%	i
CN1C(=O)c2[nH]nc(-c3ccc(F)cc3)c2C1c1cccc(O)c1 (stereo not drawn)	-11%	-12%
CC/C=C1/N=C2C(=O)N(C)C(=O)N=C2N(C)N1	2.2µM*	1.8µM*
CCCCSc1nc2ccc(Nc3nc(N4CCOCC4)nc(N4CCOCC4)n3)cc2s1	0%	-5%
CCOc1ccc(S(=O)(=O)N2CCC(C(=O)OCc3ccc(OC)cc3)CC2)cc1	-15%	i
NC(=O)N=Nc1c(O)n(Cc2ccccc2)c2ccc(Br)cc12	2%	-8%
O=C(NCc1ccco1)C1CCN(C(=O)c2cc3sccc3n2Cc2ccc(F)cc2)CC1	-30%	-10%
Cc1nn(S(=O)(=O)N(C)C)c(C)c1CN1C(=O)c2ccccc2C1=O	-12%	-1%
O=C(Cc1cccs1)Nc1ccc(S(=O)(=O)N2CCCC2)cc1	-9%	i
CCC(c1nnnn1-c1ccc(OC)cc1)N1CCC2(CC1)C(=O)NCN2c1ccccc1 (stereo not drawn)	-10%	i
CCC(C)n1c(SCC(=O)NC(=O)Nc2ccc3c(c2)OCCO3)nc2ccccc2c1=O (stereo not drawn)	-23%	?
CCOc1ccc(CNC(=O)c2cccc(Nc3nc4ccccc4n4nnnc34)c2)cc1OC	?	?
Cc1cc2nc(C)c(Cc3ccccc3)c(=O)n2[nH]1	-19%	-29%
Cc1ccsc1/C=N/NC(=O)C1C(=O)NCC1c1ccccc1 (stereo not drawn)	8%	1%
COC(=O)c1ccccc1NC(=O)CC(NCc1ccccc1)C(=O)O (stereo not drawn)	-13%	-1%
O=C(NCc1cccnc1)C12CC3CC(CC(Cl)(C3)C1)C2	-9%	-11%
COc1ccc(C(=O)NC(=S)Nc2cccc(NC(=O)c3ccco3)c2)cc1[N+](=O)[O-]	-27%	-28%
C[N+]1(CC(=O)c2ccc(Cl)c(Cl)c2)CCOCC1	-18%	i
COc1ccc(CCC(=O)NCCc2nc3ccccc3[nH]2)cc1	-7%	-10%
COc1ccc(CCC(=O)N2CCCc3ccccc32)cc1	-1%	3%
O=C(COc1ccc(Cl)cc1)Nc1ccc(O)c(-c2nc3ccccc3s2)c1	-2%[7.34 µM]	-7%[7.34 µM]
Cc1cccc(NC(=O)CSc2nnc(CNC(=O)c3ccc(S(=O)(=O)N(C)C)cc3)n2-c2cccc(C)c2)c1	-10%	-2%
CCc1cc(C(=O)NNC(=O)c2csc(N3CCOCC3)n2)sc1C	-5%	i
CCCNC(=O)C1(C)CCN(C(=O)c2ccc(F)cc2Cl)C1 (stereo not drawn)	-6%	35%[activator]
CCOC(=O)C1=C(CC)Nc2ccccc2N/C1=N\S(=O)(=O)c1ccc2ccccc2c1	-17%	-3%
CC(C)C(NC(=O)c1ccc(F)cc1)C(=O)N1CCOCC1 (stereo not drawn)	-8%	-9%
COc1ccccc1OCC(=O)NCC1CCCN(C(=O)c2cccc(C)c2)C1 (stereo not drawn)	-9%	i
CC(C)N(Cc1nc(-c2ccc3c(c2)OCO3)no1)Cc1nccn1C	-12%	0%
Cc1cc(C)n(-c2c(F)c(F)c(CO)c(F)c2F)n1	15%	-4%
Cc1cc(C)c(NC(=O)CN2C(=O)CCn3nc(-c4cccn4C)cc32)c(C)c1	-4%	-13%
Cc1[nH]c2ccccc2c1C(=O)COC(=O)c1c(-c2c(F)cccc2Cl)noc1C	?	-15%
CCOC(=O)Nc1n[nH]c(NC(=O)OCC)c1[N+](=O)[O-]	-9%	-8%
COc1ccccc1N1C(=O)C2C(C(=O)c3ccccc3)=NN(c3ccccc3)C2C1=O (stereo not drawn)	1%	-6%
COC(=O)c1cnn(-c2cc(Oc3ccccc3)ncn2)c1N	-6%	/
O=C(CSc1nccn1Cc1ccc(F)cc1)NC1CCCCC1	-6%	i
CCOc1ccc(-c2cc(CCCC(=O)NCCc3ccc(Cl)cc3)no2)cc1	0%	-4%
Cc1ccc(CCNS(=O)(=O)c2c(C)nc3sccn3c2=O)cc1	-6%	-1%
ClCCN(CCCl)/C(=C\c1ccccc1)c1ccnc2ccccc12	-5%	i
COc1ccc(OCCC(=O)Nc2cc(C)on2)cc1	-1%	-5%
CC(=O)N(c1cc(C)ccc1C)c1ccccc1[N+](=O)[O-]	-16%	-11%
CCCOc1ccc(/C(O)=C2/C(=O)C(=O)N(CCN(C)C)C2c2ccncc2)cc1 (stereo not drawn)	1%	-7%
CCC(C(=O)NCc1ccco1)N(C(=O)CNS(=O)(=O)c1ccccc1)c1ccc(F)cc1 (stereo not drawn)	-2%	-5%
COc1cccc(-n2nc(-c3ccnn3-c3ccc(C)cc3)c(=O)n(C)c2=O)c1	?	/

Five structures out of the list, arranged by number of heavy atoms, smallest number first.
SMILES	VACV Venus inh	Vaccinia mCherry
COc1ccc(OCCC(=O)Nc2cc(C)on2)cc1	-1%	-5%
COC(=O)c1cnn(-c2cc(Oc3ccccc3)ncn2)c1N	-6%	/
ClCCN(CCCl)/C(=C\c1ccccc1)c1ccnc2ccccc12	-5%	i
COc1cccc(-n2nc(-c3ccnn3-c3ccc(C)cc3)c(=O)n(C)c2=O)c1	?	/
CCC(C(=O)NCc1ccco1)N(C(=O)CNS(=O)(=O)c1ccccc1)c1ccc(F)cc1 (stereo not drawn)	-2%	-5%

The main list resumes with the 4 entries that preceded the break.
SMILES	VACV Venus inh	Vaccinia mCherry
CC(=O)N(c1cc(C)ccc1C)c1ccccc1[N+](=O)[O-]	-16%	-11%
CCCOc1ccc(/C(O)=C2/C(=O)C(=O)N(CCN(C)C)C2c2ccncc2)cc1 (stereo not drawn)	1%	-7%
CCC(C(=O)NCc1ccco1)N(C(=O)CNS(=O)(=O)c1ccccc1)c1ccc(F)cc1 (stereo not drawn)	-2%	-5%
COc1cccc(-n2nc(-c3ccnn3-c3ccc(C)cc3)c(=O)n(C)c2=O)c1	?	/
O=C1NC[C@H](Cc2ccccc2)N(C[C@H]2CCCN2C[C@H](Cc2ccccc2)N2C[C@H](Cc3ccc(O)cc3)N(CCc3ccccc3)C(=O)C2=O)C1=O	-9%	-6%
O=S(=O)(c1cccc(-c2cn3cccnc3n2)c1)N1CCCCCC1	-12%	/
COC(=O)c1ccc(CSc2nc3c(cnn3-c3ccc(C)c(C)c3)c(=O)[nH]2)o1	-10%	-15%
O=C(CC1Sc2ccc(C(F)(F)F)cc2NC1=O)Nc1ccc(Cl)c(C(F)(F)F)c1 (stereo not drawn)	-11%	-12%
COC(=O)c1[nH]c2c(c1C)C(=O)CC(c1cccc(OC)c1)C2 (stereo not drawn)	?	?
COc1ccc2[nH]cc(CCNc3ncncc3-c3ccccc3CN(C)C)c2c1	11%	4%
C=CCn1c(C)nnc1SCC(=O)Nc1ccc2c(c1)OCCO2	-7%	i
CC(C)[C@H](NC(=O)c1ccccc1)C(=O)OCC(=O)NCCC1=CCCCC1	-5%	-16%
COc1ccc(C(=O)NCCNC(=O)c2ccc(C)nc2)cc1	-13%	-2%
Cc1cccc(C)c1NC(=O)CS(=O)(=O)c1nc(-c2ccc(Cl)cc2)cn1-c1ccccc1	-26%	-23%
CCOC(=O)N1CCC(NC(=O)c2cc(COc3c(C)cccc3C)on2)CC1	-10%	-3%
COc1cccc(CNC(=O)Cn2c(=O)oc3cc(S(=O)(=O)N4CCC(C)CC4)ccc32)c1	-12%	-17%
CCCCNC(=O)c1onc(CSc2ccccn2)c1C(=O)NCCCC	-3%	-13%
CC(=O)c1ccc(N2CCN(c3ccc(NC(=O)c4ccc(F)cc4)cc3C(=O)O)CC2)cc1	-7%	-5%
C[C@@H]1NC(=O)c2cc([N+](=O)[O-])cc(I)c2NCC[C@@H](C(N)=O)NC(=O)[C@H](CC(N)=O)NC1=O	2%	i
Cc1ccc(CNc2c(C)c(C)nc3nncn23)cc1	-28%	?
Nc1c2c(nc3ccccc13)CCCC2	-12%&-13%&-19%&-7%	0%&-6%
CCOC(=O)c1ccccc1NC(=O)N1CCN2CCCCC2C1 (stereo not drawn)	-7%	i
COc1cc(/C=C/C(=O)Nc2ccc(C)cc2)cc(OC)c1OC	-20%	-33%
C#CCOCCOCCOCCNc1nc(N2CCN(C(=O)C([C@@H](C)O)n3cc([C@@H](N)CCCCN)nn3)CC2)nc(N2CCN(C(=O)[C@H](CCCN=C(N)N)n3cc(C(N)[C@@H](C)CC)nn3)CC2)n1 (stereo partly drawn)	-7%	i
COc1cccc(CNS(=O)(=O)c2cc(Br)cc3c2N(C(C)=O)C(C)C3)c1 (stereo not drawn)	-1%&-12%	-4%&-11%
CCc1nc2nc(C)c(NS(=O)(=O)c3ccc(C(C)(C)C)cc3)c(=O)n2[nH]1	-8%	-2%
O=C(Nc1ccc(Cl)c(C(F)(F)F)c1)C1CCN(S(=O)(=O)c2cccc3nonc23)CC1	-12%	-14%
